# Screening data as filed in PubChem.
# Cruzain noTriton: qHTS Assay for Promiscuous and Specific Inhibitors of Cruzain (without detergent); purified cruzain, Z-FR-AMC fluorescence, no detergent; Cruzipain (Trypanosoma cruzi), P25779; AID 1476, 2009; Potency, µM, inactives show max response, negative = inhibition, usual class: inhibitors; hit rate 2.3% among 200,000;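 further: plate controls were enzyme without inhibitor for no effect and buffer without enzyme for full effect; nearly all actives have a fitted effect of over 40% in size; top concentration of the series not given in the record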
# Target sequence (P25779 123-467 limits assumed): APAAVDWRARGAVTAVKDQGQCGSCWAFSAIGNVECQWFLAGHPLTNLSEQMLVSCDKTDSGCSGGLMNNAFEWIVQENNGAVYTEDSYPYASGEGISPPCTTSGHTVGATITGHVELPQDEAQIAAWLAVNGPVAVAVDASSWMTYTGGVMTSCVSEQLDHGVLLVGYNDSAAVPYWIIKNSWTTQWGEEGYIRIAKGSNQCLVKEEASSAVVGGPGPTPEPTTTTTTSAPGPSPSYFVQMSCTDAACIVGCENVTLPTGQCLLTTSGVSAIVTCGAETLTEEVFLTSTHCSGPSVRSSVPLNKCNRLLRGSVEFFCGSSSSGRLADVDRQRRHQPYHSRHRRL
#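 Purified cruzain at 1.5 nM, pre-incubated 15 min with compound at room temperature in 100 mM sodium acetate pH 5.5, 5 mM DTT, 0.00005% Triton X-100. Reaction started with 2 uM Z-FR-AMC; AMC fluorescence increase over 60 s gives rate.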
# RE007 growth inh: qHTS Assay for Inhibitors of the HIV-1 protein Vpr | S. pombe RE007 Vpr strain, BacTiter-Glo ATP luminescence, 24 h; control for the full effect not named in the record | Potency, µM (top dose mostly 92.2 µM), for the others: top-dose activity change, negative = less growth | hit rate 0.21% among 360,000; active = well fitted falling curve with a large enough effect; inconclusive = small, poorly fitted or top-dose-only effect; inactive = no such curve, though single readings can be large or run the other way;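 further: on the % scale 0 is the no-effect control and ±100 the full control effect; nearly all actives have a fitted effect of over 50% in size; the assay follows cell death caused by Vpr and the record does not say whether a fall means rescue or toxicity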
#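 Fission yeast strain RE007, carrying one chromosomally integrated HIV-1 vpr copy, was seeded at OD 0.01 in PMG+AL medium with 23 nL pinned compound. After 24 h at 30 °C and 99% humidity, viability was read by BacTiter-Glo luminescence.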
# Cruzain Triton: qHTS Assay for Promiscuous and Specific Inhibitors of Cruzain (with detergent) | Cruzipain (Trypanosoma cruzi), P25779 | purified cruzain, Z-FR-AMC fluorescence, 0.01% Triton | Potency, µM, without a hit: max response, negative = inhibition, hits mostly inhibitors | hit rate 0.43% among 200,000;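 further: plate controls were neutral wells for no effect and buffer without enzyme for full effect; nearly all actives have a fitted effect of over 40% in size; top concentration of the series not given in the record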
#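 Purified cruzain (1.5 nM final) was preincubated with compounds for 15 min at room temperature in 100 mM sodium acetate pH 5.5, 5 mM DTT, 0.01% Triton X-100. Reaction started with 2 uM Z-FR-AMC; AMC fluorescence change over 60 s gave activity.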
# NS1 inh: qHTS Assay for Inhibitors of Influenza NS1 Protein Function; S. cerevisiae slowed by influenza A NS1, growth recovery by OD600; Potency, µM (series often up to 46.1 µM), for inactives: at the top dose activity, positive = more growth; hit rate 0.4% among 270,000; AID 2326, 2010; active means well fitted rising curve with a large enough effect; inconclusive means small, poorly fitted or top-dose-only effect; inactive means no such curve, though single readings can be large or run the other way; further: nearly all actives have a fitted effect of over 50% in size
#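 Compounds were scored for reversing the slow growth caused by influenza A NS1 in S. cerevisiae, measured by optical density at 600 nm. Assay medium contained 2% galactose at pH 6.0; NS1-free yeast of the same strain were the positive control.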
# Lassa entry inh: qHTS for Inhibitors of binding or entry into cells for Lassa Virus | Lassa virus pseudotype entry inhibition, cell reporter; control for the full effect not named in the record | Potency, µM (top dose mostly 37.9 µM), inactives show at the top dose activity change, negative = inhibition, actives largely listed as inhibitors | hit rate 1.2% among 300,000 | AID 540256, 2011; active means well fitted inhibition curve with a large enough effect; inconclusive means small, poorly fitted or top-dose-only effect, or effect the other way; inactive means flat fitted curve, though single readings scatter; tested in HEK293 cells; further: on the % scale 0 is the no-effect control and ±100 the full control effect; nearly all actives have a fitted effect of over 50% in size; luciferase read-out
# SARS PLP yeast: qHTS of Yeast-based Assay for SARS-CoV PLP; S. cerevisiae expressing SARS-CoV PLpro, growth rescue; control for the full effect not named in the record; Potency, µM (highest dose often 32.9 µM), for inactives: at the highest dose activity, positive = growth rescue; hit rate 0.19% among 330,000; AID 485353, 2010; active means well fitted rising curve with a large enough effect; inconclusive means small, poorly fitted or top-dose-only effect; inactive means no such curve, though single readings can be large or run the other way; further: 0% is about no effect; nearly all actives have a fitted effect of over 55% in size; growth read by luminescence after 48 h
# Marburg entry inh: qHTS for inhibitors of binding or entry into cells for Marburg Virus; Marburg virus pseudotyped entry inhibition, cell reporter; control for the full effect not named in the record; about a third of the inactives were read at about 46 µM; Potency, µM (top dose mostly 37.8 µM), for inactives: at the highest dose activity change, negative = inhibition, hits mostly inhibitors; hit rate 1.8% among 300,000; AID 540276, 2011; active = well fitted inhibition curve with a large enough effect; inconclusive = small, poorly fitted or top-dose-only effect, or effect the other way; inactive = flat fitted curve, though single readings scatter; tested in HEK293 cells; about a fifth of its hits are not listed in these tables; further: on the % scale 0 is the no-effect control and ±100 the full control effect; luciferase read-out
# StopGo reporter: High Throughput Screening for Foot and Mouth Disease Virus Antivirals; Potency, µM (top dose mostly 57.9 µM), for inactives: at the highest dose signal change, negative = less light; human cells with a luciferase reporter of 2A StopGo recoding; control for the full effect not named in the record; hit rate 1.2% among 410,000; active = well fitted falling curve with a large enough effect; inconclusive = small, poorly fitted or top-dose-only effect; inactive = no such curve, though single readings can be large or run the other way; tested in HEK293T cells; further: on the % scale 0 is the no-effect control and ±100 the full control effect; nearly all actives have a fitted effect of over 45% in size; luciferase light after 4 h
# * hit, by the source's call; ? = inconclusive; / = not tested or not shown; & = joins results of further samples; [ ] = remark or other dose. Unless noted, the call rests on the fitted dose curve; in most records, active means well fitted curve in the direction sought with a large enough effect; inconclusive means small, poorly fitted or top-dose-only effect, or another doubt; inactive means no such curve, though single readings can be large; an effect the other way counts as inactive or inconclusive. Potency means the concentration at half of the fitted maximal effect.
SMILES,Cruzain noTriton,RE007 growth inh,Cruzain Triton,NS1 inh,Lassa entry inh,SARS PLP yeast,Marburg entry inh,StopGo reporter
O=C(CCC(=O)Nc1ccccc1)N/N=C/c1ccco1,2%,9%,-0.4%,5%,0%,3%,?,21%
O=C(CCC(=O)N1CC2CCCN2c2ccccc21)NCc1ccccc1F (stereo not drawn),19%,/,0.3%,/,11%[46.1 µM],/,/,-15%
COc1ccc(-c2cc(C(=O)N/N=C/c3cc(OC)c(OC)cc3OC)c3ccccc3n2)cc1,/,0%,/,/,?,/,?,4%
CN(Cc1ccc(OCC(O)CN(C)Cc2ccccc2)cc1)Cc1nccn1C (stereo not drawn),/,-6%,/,0%,/,1%,/,-19%
Cc1ccc(C(C(=O)NCC2CCCO2)N(C(=O)c2snc(C(N)=O)c2N)c2ccc(F)cc2)o1 (stereo not drawn),/,0%,/,4%,?,3%,?,-14%
CCCCNC(=O)/C(C#N)=C/c1ccc(C(=O)OC)cc1,/,5%,/,/,-1%,0%,?,-11%
COc1ccccc1N1CCN(CC(=O)NCc2ccc(Cl)cc2)CC1,/,7%,/,-13%,/,-10%,/,-20%
COc1cccc(NC(=O)CSc2c3c(nc4ccccc24)CCCC3)c1,-10%&-13%,-3%,-7.1%&-10%,-14%,?,-23%,?,32µM*
Cc1nn(-c2nc(-c3ccc(F)cc3)cc(C(F)(F)F)n2)c(C)c1Br,6%,/,-19%,/,19%[46.1 µM],/,-24%[46.1 µM],?
CN(Cc1ccccc1)c1ccc(-c2nc(-c3ccco3)no2)cc1[N+](=O)[O-],-20%,/,-11%,/,-11%[46.1 µM],/,-17%[46.1 µM],36%[activator]
Cc1ccc(NC(=O)COc2coc(CN3CCc4ccccc43)cc2=O)c(C)c1,/,-12%,/,/,-29%,-3%,-15%,-6%
CC(C)c1ccc2oc(-c3cc(NC(=O)c4cccs4)ccc3Cl)nc2c1,-24%,/,-1.8%,/,1%[46.1 µM],/,6%[46.1 µM],11%
Cc1c(Cl)cccc1NC(=O)CSc1ncc2c(n1)-c1ccccc1N(C)S2(=O)=O,9%,/,-2.3%,/,-19%[46.1 µM],/,/,?
O=C(NCc1ccco1)C12CC3CC(CC(C3)C1)C2,4%,34%,-1.2%,4%,3%,-6%,1%,7%
Cc1cc(C)n(-c2nc3ccccc3nc2Nc2cc(C(=O)O)ccc2C)n1,-7%,/,-0.1%,/,2%[46.1 µM],/,-14%[46.1 µM],-14%
O=C(Cc1cccs1)NC1CC(=O)N(c2cccc(F)c2)C1 (stereo not drawn),0%,/,0.9%,/,-10%[46.1 µM],/,/,-11%
COC(=O)c1ccc(COc2ccccc2/C=C(\C#N)C(=O)Nc2ccc(C)cc2C)cc1,-10%,0%,-3.9%,25%,-11%[46.1 µM],-2%,?,0%
CC(=O)c1ccc(Oc2ccc(C(C)=O)cc2)cc1,1%,-1%,0.5%,-7%,1%,2%,0%,17%
O=[N+]([O-])c1cc(NCCO)c(N2CCCCCC2)c2nonc12,/,3%,/,2%,/,-1%,/,7%
CCC(CNC(=O)c1c(C)nn(-c2ccccc2)c1Cl)c1ccccc1 (stereo not drawn),/,21%,/,-7%,?,8%,?,-17%
Cc1ccc(NS(=O)(=O)c2ccc(C)c(C(=O)N3CCN(C)CC3)c2)cc1,-6%,9%,-4.1%,-9%,21%,6%,3%,25%
CSCCC(C)N1CCC(Oc2ccc(C(=O)N3CCCC3)cc2)CC1 (stereo not drawn),/,-8%,/,17%,-1%,-3%,-13%,16%
CN(Cc1ccccc1)c1ccc2cc(S(=O)(=O)N3CCCCC3)ccc2n1,-6%,/,1.4%,/,?,/,/,-14%
Cc1ccccc1C1C(C#N)=C2NC(=O)c3c(sc4c3CCCCC4)N2C2=C1C(=O)CC(C)(C)C2 (stereo not drawn),?,/,5.3%,17%,/,1%,/,/
Cn1ccc2c(OCC(=O)NCc3ccccc3)cccc2c1=O,-4%,/,-0.5%,/,?,/,/,1%
Cc1ccsc1C(=O)C1CCCN(Cc2sc(N(C)C)nc2Cl)C1 (stereo not drawn),/,-13%,/,-3%,-3%[46.1 µM],0%,?,?
O=C(NNC(=O)C1CCN(S(=O)(=O)c2ccc(Cl)cc2)CC1)c1ccc(Cl)cc1,2%,20%,9.1%,23%,0%,?,-8%,2%
CCOC(=O)CC(NS(=O)(=O)c1ccc(NC(C)=O)cc1)c1ccc(OCC)cc1 (stereo not drawn),4%,16%,-0.4%,4%,-12%,12%,19%,6%
O=C(CSc1nnc(-c2ccc(O)cc2)o1)c1ccc(Br)cc1,-8%,/,-2.8%,/,0%[46.1 µM],/,/,0%
Cc1nn(CCCC(=O)NCc2ccccc2)c(=O)c2c1sc1ccccc12,-8%,/,-11%,/,?,/,?,-23%
CCOC(=O)c1cc2c(OC)ccc(OC)c2n1CC(=O)c1ccccc1,/,2%,/,-1%,/,8%,/,-1%
COc1ccccc1N1CCN(S(=O)(=O)c2c(C)sc3ncn(CC(=O)Nc4ccccc4F)c(=O)c23)CC1,-4%,/,-0.4%,/,1%[46.1 µM],/,17%[46.1 µM],-18%
O=C(NNC(=O)c1cc2ccccc2oc1=O)c1ccccc1,/,-5%,/,-21%,?,2%,22%[46.1 µM],31%[activator]
O=C(O)c1ccc(Oc2nc3ccccc3s2)cc1,0%,0%,4.7%,-16%,-5%,/,/,?
C1CCCCCC(NCCN2CCNCC2)CCCCC1,/,-10%,/,0%,?,-6%,?,-11%
O=C(O)C1CCN(Cc2ccccn2)CC1,/,-3%,/,6%,-12%,4%,8%[46.1 µM],-12%
C=CCn1c(Cc2csc(N)n2)nnc1SCC(=O)OCC,5%,-10%,-1.9%,6%,0%,2%,5%,-7%
O=C(Cc1ccccc1[N+](=O)[O-])N1CCOCC1,/,-1%,/,12%,/,-9%,/,-8%
Cc1cc(NC(=O)COC(=O)[C@@H]2CCCN2C(=O)c2cccs2)no1,/,14%,/,/,2%[46.1 µM],/,8%[46.1 µM],7%
COc1ccc(CCN(C)C(=O)CSc2nccn2C)cc1OC,6%,3%,5.1%,5%,0%,28%,-13%,-11%
CC(C)C1C(C#N)=C(N)Oc2n[nH]c(-c3ccc4ccccc4c3)c21 (stereo not drawn),0%,4%,-4.0%,6%,-17%,-1%,-17%,/
O=C(Cc1ccccc1)NCC(=O)OC(c1ccccc1)c1ccccc1,/,3%,/,-17%,?,-2%,-26%[46.1 µM],-4%
Cc1oc(-c2cccs2)nc1CS(=O)CC(=O)NCCc1ccccc1 (stereo not drawn),-13%,-2%,-6.8%,?,/,12%,/,14%
CCC(=O)NC(=S)Nc1ccc(NC(=S)NC(=O)c2ccccc2)cc1,/,-10%,/,-1%,/,0%,/,0%
COc1ccccc1CC(NC(C)=O)C(=O)NC1CCN(C(=O)NCc2ccccc2)CC1 (stereo not drawn),/,-6%,/,-1%,/,-6%,7%[46.1 µM],-5%
C(=N\NCc1ccccc1)/c1ccc2ncccc2c1,/,?,/,1%,/,-3%,/,10%
Cc1onc(-c2c(F)cccc2Cl)c1C(=O)Nc1nccs1,/,9%,/,/,0%[46.1 µM],0%,?,-28%
COc1ccc(N2CCN(CCCNC(=O)C(=O)c3c[nH]c4ccccc34)CC2)cc1,/,-13%,/,3%,?,0%,?,-21%
Cc1nc(-c2cccc(F)c2)sc1CCNC(=O)C(=O)Nc1ccc2c(c1)OCO2,-13%,/,5.3%,/,0%[46.1 µM],/,/,-8%
COc1cc(/C=N/NC(=O)c2ccncc2)ccc1O,/,8%&1%[18.4 µM],/,0%&10%,/,0%&9%,/,-10%&-4%

# (continued)
SMILES,Cruzain noTriton,RE007 growth inh,Cruzain Triton,NS1 inh,Lassa entry inh,SARS PLP yeast,Marburg entry inh,StopGo reporter
CCOc1ccc(CN(C)C(=O)[C@H](C)NC(=O)c2ccco2)cc1OC,/,-16%,/,-2%,/,2%,-3%[46.1 µM],-2%
CC(Nc1cc(N2CCNCC2)ccc1[N+](=O)[O-])c1ccccc1 (stereo not drawn),?,5%,-18%,?,-4%,-4%,?,-3%
COc1ccc(NC(=O)CN(C)CC(=O)NCCc2ccc(F)cc2)cc1,/,1%,/,/,?,4%,3%,-24%
CC(Oc1ccc(Br)cc1)C(=O)NC1CCN(Cc2ccccc2)CC1 (stereo not drawn),/,6%,/,/,-31%,5%,13µM*,-28%
COc1ccc(NC(=O)CCC(=O)N/N=C/c2cccnc2)cc1,/,-5%,/,7%,/,-2%,/,-12%
CN(C)c1ccccc1C(=O)N1CCCC(Nc2ccc(F)cc2)C1 (stereo not drawn),/,-1%,/,-4%,/,2%,/,-24%
O=c1cc(Cl)[nH]c(=O)n1Cc1ccc(F)cc1,/,-1%,/,26%,/,2%,/,-1%
CC1CCN(C2=C(NS(=O)(=O)c3ccc(Cl)cc3)C(=O)c3ccccc3C2=O)CC1,-18%,-14%,-5.9%,6%,7%[46.1 µM],-28%,-32%,-1%
O=C(NCc1ccccc1)c1cccc(S(=O)(=O)N2CCCCC2)c1,/,3%,/,-10%,?,-1%,-19%[46.1 µM],21%
COc1cccc(-c2cc(C(=O)N3CCN(c4ncccn4)CC3)c3ccccc3n2)c1,?,21%,-3.9%,4%,?,0%,?,6%
Cc1nnc(SC(C)C(=O)Nc2ccc3c(c2)OCCO3)s1 (stereo not drawn),-1%,-2%,-1.0%,-7%,-6%,-6%,9%,/
COc1cccc(-c2cn3c(n2)sc2cc(C(=O)NC4CCCCCC4)ccc23)c1,4%,/,-2.1%,/,11%[46.1 µM],/,/,2%
CCOc1ccc(C(=O)c2nc3c(n2O)CCCCC3)cc1,-8%,-2%,-11%,-7%,-2%,-5%,17%,11%
O=C(NCCCl)NNC(=O)c1cc2ccccc2cc1O,/,20%,/,2%,9%,-1%,-2%,56%[activator]
CCCC(=O)Nc1ccc(Cl)c(NC(=O)c2ccc(Br)o2)c1,4%,-3%,-0.1%,-37%,3%,/,-30%,-8%
